From PubChem
miR-21 reporter – miR-21 reporter, rising signal; HeLa miR-21 FLuc reporter, luciferase, 48 h; Potency, µM (series often up to 38.3 µM), for the others: at the top dose reporter change, positive = more light; 340,000 tested, under 10 active; AID 2288; active = well fitted rising curve with a large enough effect; inconclusive = small, poorly fitted or top-dose-only effect; inactive = no such curve, though single readings can be large or run the other way;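 further: % of control where 0% means no effect; miR-21 action dims this reporter so a rising signal means less miR-21 action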
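Compounds were titrated across several concentrations (up to approximately 40 uM) and incubated 48 hours with HeLa miR-21-FLuc reporter cells (miR-21 target sequence downstream of FLuc, endogenous miR-21). Readout was firefly luciferase luminescence after lytic detection reagent.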
Rango release inh – inhibition of RanGTP-driven Rango-importin beta dissociation | Biochemical FRET Rango-importin beta, RanGTP-induced dissociation | 340,000 tested, 0.071% active | O95149+P62826 | Potency, µM (doses to about 46.1 µM), for inactives: at the top dose activity change, negative = inhibition; active means falling FRET ratio curve, often poorly fitted, with flat reads before Ran was added; inconclusive means other falling curves, or compound fluorescence or quenching; inactive means flat or rising ratio curve;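 further: potency means the concentration at half of the fitted maximal effect; % of control where 0% means no effect; nearly all actives have a fitted effect of over 45% in size; -100% = wells without RanGTP and RCC1; the record marks most hits as doubtful in a second field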
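Two FRET readings bracket the reaction: one 5 min after compound meets Rango–importin beta, another 45 min after RanGTP-RCC1 (0.6 uM Ran, 0.2 uM RCC1, 2 mM GTP) is added. Only the second defines inhibition.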
GLA inh pH 4.5 – inhibitors of human alpha-galactosidase A at pH 4.5; P06280; purified enzyme, 4-MU-alpha-Gal fluorescence, pH 4.5; activity change, negative = inhibition, % at 105 µM; 230,000 tested, under 10 active; AID 1467; inconclusive = small, poorly fitted or top-dose-only inhibition, or a rising curve; inactive = flat fitted curve, though single readings scatter; no compound was filed as active;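 further: 0% = full activity with enzyme and -100% = basal without enzyme; dose as in the result columns while the protocol names 77 µM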
Rango-impB inh – prevents formation of the Rango-importin beta complex. Q14974. 340,000 tested, 0.031% active. Rango CFP/YFP FRET sensor + importin beta, 45 min. Potency, µM (highest dose often 92.2 µM), for the others: at the highest dose inhibition of complex formation; active = rising FRET ratio curve, often small or poorly fitted; inconclusive = mostly compound fluorescence or quenching in the first reads; inactive = flat curves in all reads;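 further: potency means the concentration at half of the fitted maximal effect; 0% = DMSO wells and 100% = buffer wells lacking importin beta; nearly all actives have a fitted effect of over 15% in size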
Target sequence (Q14974 whole entry, looked up): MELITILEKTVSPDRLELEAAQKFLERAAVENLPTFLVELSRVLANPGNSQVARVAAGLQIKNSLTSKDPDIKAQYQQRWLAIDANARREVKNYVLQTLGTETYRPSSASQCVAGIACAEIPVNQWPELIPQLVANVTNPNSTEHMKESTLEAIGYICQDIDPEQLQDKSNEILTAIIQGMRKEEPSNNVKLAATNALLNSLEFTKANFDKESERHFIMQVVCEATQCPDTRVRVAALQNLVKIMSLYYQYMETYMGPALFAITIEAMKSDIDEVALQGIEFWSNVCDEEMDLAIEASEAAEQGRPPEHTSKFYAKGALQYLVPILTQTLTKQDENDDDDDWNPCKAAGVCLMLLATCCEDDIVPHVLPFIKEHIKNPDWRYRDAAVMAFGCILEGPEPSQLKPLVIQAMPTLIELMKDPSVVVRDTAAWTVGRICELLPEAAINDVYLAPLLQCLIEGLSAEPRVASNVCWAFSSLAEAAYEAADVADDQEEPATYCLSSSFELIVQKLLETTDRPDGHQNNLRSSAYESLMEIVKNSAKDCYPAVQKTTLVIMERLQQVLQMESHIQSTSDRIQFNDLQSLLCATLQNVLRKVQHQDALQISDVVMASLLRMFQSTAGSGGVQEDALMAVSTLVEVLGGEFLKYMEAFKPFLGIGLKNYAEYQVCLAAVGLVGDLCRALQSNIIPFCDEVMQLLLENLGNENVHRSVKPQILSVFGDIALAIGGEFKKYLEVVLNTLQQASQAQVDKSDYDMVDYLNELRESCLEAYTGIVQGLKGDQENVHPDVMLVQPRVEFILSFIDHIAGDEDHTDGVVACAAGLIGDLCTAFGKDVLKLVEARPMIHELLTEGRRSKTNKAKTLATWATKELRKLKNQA
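Inhibition scored from the CFP 486 nm/YFP 530 nm FRET ratio 45 min after adding 0.125 microM importin beta to 50 nM Rango biosensor preincubated 5 min with compound (room temperature, PBS with DTT, Tween-20, BSA). No-importin wells as positive control.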
An asterisk follows results filed as active; ? = inconclusive; · = not tested or not shown; & = joins results of further samples.

1	OCCCNC(=S)NC1CCCC1
2	Cc1cc(=O)[nH]c2cc(O)ccc12
3	Cc1ccc(C(=O)N(C)CC(=O)Nc2ccc(N3CCOCC3)cc2)s1
4	CCCC(=O)NNC(=O)CCC(=O)Nc1ccccc1Cl
5	CCOc1ccccc1OCC(=O)OCC(=O)c1c(C)[nH]c2ccccc12
6	CCc1ccc(OCCCC(=O)NCc2ccccc2)cc1
7	Cc1nn(C)c(Cl)c1CN1CCN(CCC(C)C)C(CCO)C1 (configuration not stated)
8	Cc1ccc(CNC(=O)c2ccc(CS(=O)(=O)c3ccccc3C)o2)cc1
screen / no. | 1 | 2 | 3 | 4 | 5 | 6 | 7 | 8
Rango-impB inh | 1.6% | 1.2% | 0.1% | -0.8% | 6.6% | 0.2% | -0.2% | 1.6%
Rango release inh | -5.5% | 8.3% | 6.4% | -3.9% | -2.8% | 5.2% | 0.3% | -8.3%
GLA inh pH 4.5 | 1.9 | ? | · | 0.0 | · | -20.2 | 1.1 | ·
miR-21 reporter | -4.3% | -4.5% | · | -2.3% | · | 17.3% | 1.6% | -1.3%&9.1%

9	Cc1cccc(C(=O)OCC(=O)c2ccc3c(c2)NC(=O)CO3)c1
10	N#C/C(C(N)=O)=C1/CCCN1Cc1ccccc1
11	CCN1CCN(CC(=O)Nc2cc(C)c(C)cc2[N+](=O)[O-])CC1
12	Cc1noc(C)c1C(=O)OCC(=O)c1ccc[nH]1
13	CC(C)Oc1ccc(CN=C(N)N=C(N)N)cc1Cl
14	Cc1ccc(CN2C(=O)N/C(=C/c3ccc(-c4ccc(C(=O)O)cc4)o3)C2=O)cc1
15	CC(C)N1CCSC1=S
16	COc1ccccc1Oc1ccc2c(c1)C(=O)N(c1ccccc1)C2=O
screen / no. | 9 | 10 | 11 | 12 | 13 | 14 | 15 | 16
Rango-impB inh | ? | 0.2% | 0.5% | ? | 2.2% | ? | -0.1% | -0.6%
Rango release inh | 1.0% | -9.9% | -1.1% | 4.9% | 5.1% | ? | -15.2% | 0.4%
GLA inh pH 4.5 | · | · | 2.3 | 5.5 | 5.5 | -5.2 | · | 1.8
miR-21 reporter | · | · | -9.2% | -1.5% | 13.4% | -5.3% | · | -5.5%

17	CC1=CC(C)C2(CO)COC(c3ccccc3O)C1C2C (configuration not stated)
18	Cc1ccc(NCc2nnc3n2CCCCC3)c(C)c1
19	COCCOC(=O)C1=C(C)NC2=C(C(=O)CC(C)(C)C2)C1c1cccnc1 (configuration not stated)
20	COc1cc(OC)c2c(-c3cccc(-c4ccc(CO)cc4)c3)cc(=O)oc2c1
21	COc1ccc(NC(=O)c2ccc(COCC(F)(F)F)cc2)cc1OC
22	CCCCn1c(N)c(N(CC(C)C)C(=O)CSc2nnc(C)n2-c2ccccc2)c(=O)[nH]c1=O
23	c1ccc2sc(N3CCN(Cc4nnnn4CC4CCCO4)CC3)nc2c1 (configuration not stated)
24	CCN(C(=O)c1ccco1)c1nc(-c2ccc(OC)cc2)cs1
screen / no. | 17 | 18 | 19 | 20 | 21 | 22 | 23 | 24
Rango-impB inh | -0.8% | 1.6% | ? | 15.3% | ? | -3.3% | 6.7% | 2.0%
Rango release inh | -5.4% | 5.9% | ? | 20.4% | 1.3% | -2.3% | 1.5% | 9.4%
GLA inh pH 4.5 | 11.9 | 0.8 | ? | -11.2 | 7.7 | · | 5.0 | ·
miR-21 reporter | 9.5% | -5.0% | -5.2% | · | -26.5% | · | -11.2% | -57.2%

Compound profiles, as listed above. Order of values: Rango-impB inh | Rango release inh | GLA inh pH 4.5 | miR-21 reporter
COc1ccc(NC(=O)c2ccc(COCC(F)(F)F)cc2)cc1OC is listed with ? | 1.3% | 7.7 | -26.5%
Cc1ccc(NCc2nnc3n2CCCCC3)c(C)c1 is listed with 1.6% | 5.9% | 0.8 | -5.0%
c1ccc2sc(N3CCN(Cc4nnnn4CC4CCCO4)CC3)nc2c1 (configuration not stated) is listed with 6.7% | 1.5% | 5.0 | -11.2%
CCCCn1c(N)c(N(CC(C)C)C(=O)CSc2nnc(C)n2-c2ccccc2)c(=O)[nH]c1=O is listed with -3.3% | -2.3% | · | ·

Continued:
25	COc1ccc(OC)c(NC(=O)CSc2ncccc2C(=O)O)c1
26	O=S(=O)(Nc1ccc(Nc2ccccc2)cc1)c1ccc(F)cc1
27	Cc1ccc(/C=N/NC(=O)c2ccc(-n3cnnn3)cc2)cc1
28	CCOC(=O)c1sc(-c2ccc(OC)cc2)cc1NC(C)=O
29	CC(=O)Nc1ccc2c(COC(=O)CC3Sc4ccccc4NC3=O)cc(=O)oc2c1 (configuration not stated)
30	CCNC(=O)C(=O)NCC1CCCN1S(=O)(=O)c1cccs1 (configuration not stated)
31	CC(=O)c1cc2c(cc1NC(=O)Nc1cccc(Cl)c1)OCCO2
32	CC1CCN(CC(=O)Nc2ccc(C(=O)N3CCCCC3)cc2)CC1
screen / no. | 25 | 26 | 27 | 28 | 29 | 30 | 31 | 32
Rango-impB inh | -0.3% | -0.4% | 3.6% | 0.6% | -2.3% | -1.3% | ? | 3.7%
Rango release inh | -1.5% | -9.0% | 0.9% | 12.8% | -8.0% | -5.2% | ? | 5.0%
GLA inh pH 4.5 | 5.0 | · | · | 23.8 | 6.5 | · | 17.3 | ·
miR-21 reporter | -4.6% | · | · | -22.1% | -11.9% | · | -15.1% | -1.6%

33	NS(=O)(=O)c1ccc(N=Nc2ccc(O)c3ncccc23)cc1
34	CCC[C@@H](CN1CCC[C@H]1CN1C(N)=NC[C@@H]1Cc1ccccc1)N1C[C@@H]([C@H](C)CC)N(CCCC2CCCC2)C1=N
35	O=C(NCCCn1ccnc1)/C(=C/c1ccco1)NC(=O)c1cccs1
36	Cc1cc(=O)oc2cc(NC(=O)c3ccc(OC(F)F)cc3)ccc12
37	O=C(c1ccccc1)N(Cc1cccs1)C1CCS(=O)(=O)C1 (configuration not stated)
38	CC(C)COC(=O)N(C)c1ccc(C(O)(C(F)(F)F)C(F)(F)F)cc1
39	O=C(c1ccc(S(=O)(=O)Cc2ccccc2F)c([N+](=O)[O-])c1)N1CCCCCC1
40	CC1CN(C(=O)C2CC2)C(C)CN1C(=O)C1CC1 (configuration not stated)
screen / no. | 33 | 34 | 35 | 36 | 37 | 38 | 39 | 40
Rango-impB inh | 5.7% | ? | 7.2% | -3.4% | 1.1% | 1.7% | -5.4% | 0.1%
Rango release inh | -3.9% | -15.7% | 27.6% | 8.8% | 0.8% | -10.4% | -2.0% | -8.7%
GLA inh pH 4.5 | · | · | 2.3 | · | 1.3 | -10.8 | -2.4 | 0.5
miR-21 reporter | ? | · | -3.0% | -40.4% | 0.8% | -9.2% | 28.3% | 3.5%

41	Cc1ccc(N(CC(=O)NCC2CCCO2)C(=O)CCC(=O)Nc2cc(C)on2)cc1 (configuration not stated)
42	C/C=C/Cn1cccc(C(=O)Nc2ccc(OC)cc2)c1=O
43	COc1ccc(C)cc1NC(=O)c1ccccc1NS(=O)(=O)c1cccc2cccnc12
44	Cc1ccc(C(=O)O/N=C(\N)Cc2ccc([N+](=O)[O-])cc2)c(Cl)c1
45	O=C(NC1CCc2ccccc21)C12CN(Cc3ccccc3)CC1C(c1cccc([N+](=O)[O-])c1)=NO2 (configuration not stated)
46	O=[N+]([O-])c1ccc(CSc2nc3ccccc3o2)cc1
47	OC(c1nc2ccccc2[nH]1)C(O)C(O)C(O)c1nc2ccccc2[nH]1 (configuration not stated)
48	CCN1CNC(=S)N(CCc2ccccc2)C1
screen / no. | 41 | 42 | 43 | 44 | 45 | 46 | 47 | 48
Rango-impB inh | -0.3% | 3.1% | 0.4% | 0.3% | -2.6% | -0.3% | 1.2% | 0.1%
Rango release inh | -1.4% | 1.8% | -18.9% | 2.8% | -12.0% | -4.5% | -5.7% | 1.0%
GLA inh pH 4.5 | · | 1.4 | 1.0 | -6.0 | -19.3 | -0.4 | 2.1 | 4.1
miR-21 reporter | -1.4% | -30.1% | -10.0% | -5.0% | 1.4% | -50.6% | -1.0% | 1.5%

49	CC(C)(C)c1cc(CN2CCCC(O)C2)c(O)c(C(C)(C)C)c1 (configuration not stated)
50	COc1cccc(-c2ccc(SCC(=O)NCCc3ccccc3)nn2)c1
51	COCCNc1nc(SCC(=O)N2CCN(c3ccccc3)CC2)nc2ccccc12
52	OC1CC2CCC(C1)N2CCCN1c2ccccc2Sc2ccc(Cl)cc21 (configuration not stated)
53	CCOC(=O)c1c(NC(=O)COc2cccc3c2CCN(C)C3=O)sc2c1CCC2
54	COc1ccccc1/C=N/N1C(=O)c2cccc3cccc(c23)C1=O
55	CC(C)(C)CC(=O)Nc1ccc(C(N)=O)cc1
56	C=CCN(C(=O)CNC(=O)c1ccco1)C(C(=O)NC1CCCCC1)c1ccc(OC)cc1 (configuration not stated)
screen / no. | 49 | 50 | 51 | 52 | 53 | 54 | 55 | 56
Rango-impB inh | 1.4% | 3.4% | -3.7% | -2.3% | 0.2% | -0.3% | 4.2% | 2.9%
Rango release inh | 20.1% | -11.4% | 21.9% | 6.1% | -16.0% | 10.7% | 0.2% | 4.3%
GLA inh pH 4.5 | -18.1 | 6.0 | -5.4 | · | -8.0 | -0.1 | 5.8 | -4.0
miR-21 reporter | 5.9% | 0.4% | -4.2% | · | -4.8% | 0.1% | 0.6% | -14.5%

57	Cc1ccc(C2C3=C(CCCC3=O)N=C3c4ccccc4C(=O)C32)cc1 (configuration not stated)
58	CCOC(=O)c1sc(NC(=O)CN2C(=O)NC3(CCCCCCC3)C2=O)c(C(=O)OCC)c1C
59	CCOC(=O)/C(C#N)=C\c1cc(C)n(-c2ccccc2)c1C
60	Cc1ccccc1CNC(=O)C1CCN(c2nnc(N3CCCC3=O)s2)CC1
61	C/C(=N\NC(=S)NC(C)C)c1ccc(-n2ccnc2)cc1
62	Cc1ccc(S(=O)(=O)N2CCC[C@H]2C(=O)OCC(=O)N2c3ccccc3NC(=O)C2(C)C)cc1
63	COc1ccc(CC(=O)NNC(=S)Nc2ccccc2)cc1Br
64	Cc1c(C)c2ccc(OCC(=O)Nc3cccnc3)cc2oc1=O
screen / no. | 57 | 58 | 59 | 60 | 61 | 62 | 63 | 64
Rango-impB inh | 5.7% | 0.0% | -4.3% | ? | -1.7% | -2.3% | 1.8% | 1.6%
Rango release inh | 18.4% | 15.4% | -20.5% | -1.3% | 1.6% | 1.3% | 8.4% | -16.3%
GLA inh pH 4.5 | -5.4 | -16.7 | -1.4 | · | 8.8 | · | 10.2 | ·
miR-21 reporter | -0.1% | -10.5% | -51.4% | 0.2% | -1.8% | · | -5.6% | -8.5%

65	CCNc1nc(Oc2ccc(=O)[nH]n2)nc(SC)n1
66	CC(C(=O)Nc1ccc(Cl)cc1Cl)N1C(=O)NC2(CCCC2)C1=O (configuration not stated)
67	CCOC(=O)C1(Cc2ccccc2)CCN(Cc2cnn(CC)c2)CC1
68	CCCSc1nc(C)c(CC(=O)O)c(=O)[nH]1
69	Cc1onc(-c2ccccc2)c1C(=O)N1CCN(S(=O)(=O)c2ccc3c(c2)OCCO3)CC1
70	O=C(CSc1nnc(CNC(=O)c2ccco2)o1)Nc1ccc(Br)cc1
screen / no. | 65 | 66 | 67 | 68 | 69 | 70
Rango-impB inh | 3.5% | -3.1% | 2.8% | 1.3% | -2.3% | 9.7%
Rango release inh | -8.1% | 19.9% | -25.9% | -2.5% | 10.0% | 16.7%
GLA inh pH 4.5 | 2.4 | · | -1.7 | -7.5 | -3.3 | ·
miR-21 reporter | 1.7% | -1.6% | 0.3% | -1.0% | -1.9% | -0.8%

Three compounds from above, ordered by the value under Rango-impB inh, falling:
70	O=C(CSc1nnc(CNC(=O)c2ccco2)o1)Nc1ccc(Br)cc1
68	CCCSc1nc(C)c(CC(=O)O)c(=O)[nH]1
69	Cc1onc(-c2ccccc2)c1C(=O)N1CCN(S(=O)(=O)c2ccc3c(c2)OCCO3)CC1
screen / no. | 70 | 68 | 69
Rango-impB inh | 9.7% | 1.3% | -2.3%
Rango release inh | 16.7% | -2.5% | 10.0%
GLA inh pH 4.5 | · | -7.5 | -3.3
miR-21 reporter | -0.8% | -1.0% | -1.9%

An excerpt (hit frequency here may not be typical).
